HCMV NEC inh: disrupts HCMV UL50-UL53 complex binding; HTRF UL50-UL53 interaction, normalized percent inhibition; inhibition, % (test concentration not listed); 190,000 tested, 0.15% active; AID 1918969;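 active = both replicates at 50% or more, plus weaker picks with an unusually low signal ratio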;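 note: stock transfer was 100 nL into about 20 µL; 0% = negative control wells and 100% = wells with untagged competitor protein; inactives centre near -12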
GIV Gai3 FP: blocks GIV peptide binding to rat Galpha-i3. Galpha-i3/FITC-GIV peptide fluorescence polarization, 90 min; active compounds read low; scaled: aluminum fluoride 0%, vehicle 100%. percent of control (FP), % (test concentration not listed). 210,000 tested, 0.42% active. AID 1224905;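 active = replicate mean at 85% of control or lower, very high polarization wells dropped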;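 note: lower values mean more displacement of the GIV peptide from Galpha-i3; wells of about 15 µL received 100 nL stock; the first replicate is given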
Target sequence (P08753 whole entry, looked up): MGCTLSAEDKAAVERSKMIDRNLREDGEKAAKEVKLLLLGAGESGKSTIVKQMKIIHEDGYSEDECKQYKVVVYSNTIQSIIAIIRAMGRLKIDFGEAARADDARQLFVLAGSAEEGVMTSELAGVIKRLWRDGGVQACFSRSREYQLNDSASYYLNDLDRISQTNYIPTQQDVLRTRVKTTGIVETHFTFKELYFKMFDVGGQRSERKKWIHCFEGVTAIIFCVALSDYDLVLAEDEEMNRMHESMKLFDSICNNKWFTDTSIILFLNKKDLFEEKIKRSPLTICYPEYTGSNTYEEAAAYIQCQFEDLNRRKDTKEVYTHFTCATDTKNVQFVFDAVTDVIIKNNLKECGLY
Sa growth 42C: S. aureus growth inhibition. S. aureus RN4220 growth, OD600, 20 h, 42 °C; active compounds read low. relative growth, % (concentration not given with the values). 170,000 tested, 0.53% active;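 active = growth at 42 °C up to 50% and 20 or more points under that at 30 °C, or under 10% at both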;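 note: 300 nL library stock went into each well; scaled to the means of positive and negative controls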
Sa growth 42C second temp: also measured in Sa growth 42C; calls as there; relative growth, %; measured here: growth at 30 °C;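 optical density after 20 h as mean of two plates; 100% = untreated growth and lower means inhibition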
Active calls of the source: *; x = not tested or not shown; & = joins results of further samples.

SMILES	HCMV NEC inh	GIV Gai3 FP	Sa growth 42C	Sa growth 42C second temp
CCCOc1ccc(C2C(=O)N(C3CCC(C)CC3)CC(=O)N2Cc2cccc(OC)c2)cc1OC (stereo not drawn)	x	108	107	93
CCC(=O)N1c2ccccc2-c2nnc(SC)nc2OC1c1ccsc1 (stereo not drawn)	-89	101	106	87
CC1C(=O)C(C)C(c2ccc(Br)cc2)NC1c1ccc(Br)cc1 (stereo not drawn)	x	99	98	85
O=C(Oc1ccccc1)c1cccc(COC(=O)c2cnccn2)c1	-13	105	101	94
Cc1ccc(-n2c(C)cc(C=Nc3ccc(-c4nnc5n4CCCCC5)cc3)c2C)cc1	-31	x	89	89
CCOC(=O)C1CCN(c2cc3c(cc2NC(=O)c2ccc(OC)c(OC)c2)n(C)c(=O)n3C)CC1	-10	103	104	85
CCOc1ncccc1C(=O)OCc1cn2cc(Cl)ccc2n1	-9	x	101	91
CCOc1ccccc1Nc1ncnc2c1cnn2-c1ccc(C)cc1	x	102	95	85
O=C(CCCn1c(=O)c2cccn2c2ccccc21)NCCN1CCCCCC1	-12	98	95	81
CC1CN(S(=O)(=O)c2cccs2)C(C)CN1S(=O)(=O)c1cccs1 (stereo not drawn)	3	104	113	92
CCOc1cc(C)c(S(=O)(=O)N2CCc3cc4cccc(C)c4nc32)cc1C	-22	102	x	x
Cc1ccc(NC(=O)Cn2c(=O)c(C#N)c3n(c2=O)CCC3)cc1	21	x	126	95
COc1ccc(CN(C)C(=O)Nc2ccccc2)cc1	-41	96	83	105
CC1=C(C(=O)OCc2ccc3c(c2)OCO3)C(c2ccccc2OCc2ccccc2)NC(=O)N1 (stereo not drawn)	-2	104	x	x
O=C(Cc1cn2ccsc2n1)N/N=C1\CCCCC1C1CCCCC1 (stereo not drawn)	5	x	102	93
Cc1ccccc1-c1nc2cc(NC(=O)c3cccc(OCCC(C)C)c3)ccc2o1	-6	99	101	93
Cn1c(=Nc2ccccc2C(=O)O)sc2ccccc21	x	104	111	98
CC(C)(C)c1cc(NC(=O)Nc2ccccc2)no1	-36	105	91	76
Cc1cc(C)cc(NC(=O)c2[nH]c(C)c(S(=O)(=O)N3CCCC3)c2C)c1	-2	109	x	x
O=c1oc2ccccc2n1CNc1cccc(Cl)c1	x	114	109	95
COc1cc(OC)c(Nc2nc3ccccc3nc2-n2nc(C)cc2C)cc1Cl	-4	97	93	101
CC(C)c1cnc2c(c1SCC(=O)c1ccc(Cl)cc1)c(=O)n(C)c(=O)n2C	x	109	93	96
C/C(=N\NC(=O)c1ccn[nH]1)c1cc(O)ccc1O	-37	110	89	73
Cc1ccc(NC(=O)Nc2ccc(N(C)C)cc2)cc1	-20	x	82	100
Cc1cccc(C(=O)Nc2ccc(C(=O)OCc3cc(=O)n4nc(CC(C)C)sc4n3)cc2)c1	x	104	93	95
Cc1cc2ncc(-n3cncn3)c(-c3ccccc3)n2n1	-11	105	x	x
COc1cccc(-c2nc(CS(=O)(=O)CC(=O)N3CCN(c4cc(C)ccc4C)CC3)c(C)o2)c1	17	100	102	96
CCOC(=O)C1CCN(C(c2ccncc2)c2c(O)cc(C)n(Cc3cccnc3)c2=O)CC1 (stereo not drawn)	-35	104	82	81
CC(C)=CCCC(C)CN1CCC(O)CC1 (stereo not drawn)	-10	104	125	78
Cc1ccc(N(CC(=O)O)S(=O)(=O)c2ccccc2)cc1	-2	97	107	96
COC(=O)c1cc(NC(=O)CSC2=NCCS2)cc(C(=O)OC)c1	0	103	100	101
CCN(CC)CCN(C)C1CCC(C)CC1 (stereo not drawn)	-9	99	103	77
Clc1ccccc1CN1CCN(/N=C/C=C\c2ccco2)CC1	x	106	84	83
c1ccc2c(c1)CCC[C@H]2Nc1nc2ccccc2[nH]1	-14	105	x	x
N=C1/C(=C\c2ccc(SCc3ccccc3)o2)C(=O)N=C2SC(CC(=O)N3CCOCC3)=NN12	-41	108	83	57
CC1=C(C(=O)Nc2nc3ccc(Br)cc3s2)C(c2ccccc2)C2=C(CC(C)(C)CC2=O)N1 (stereo not drawn)	4	100	x	x
Cc1ccc(C)c(NC(=O)C(Sc2nnnn2Cc2cccs2)c2ccccc2)c1 (stereo not drawn)	-35	x	80	77
O=C(COC(=O)c1ccccc1O)NCc1ccccc1	-15	x	106	94
Cc1oc(-c2ccccc2Cl)nc1CS(=O)(=O)CC(=O)NCCN1CCOCC1	x	98	82	81
O=C(Cc1ccccc1)SC1=NCCS1	-5	x	58	31
Cc1ccc(N(CC(C)C)S(=O)(=O)c2nnc(NC(=O)C(C)C)s2)cc1	-15	101	88	89
COc1ccc(N2CCN(CCCNC(=O)CCCn3c(=O)[nH]c4ccc(Br)cc4c3=O)CC2)cc1	-28	101	x	x
CCOC(=O)/C(=N\Nc1ccccc1)N1CCN(S(=O)(=O)c2cccc(Br)c2)CC1	-2	x	93	99
CC1=C(C(=O)OCCOc2ccccc2)C(c2coc3ccccc3c2=O)C2=C(CC(C)(C)CC2=O)N1 (stereo not drawn)	-24	100	x	x
CCOC(=O)c1sc(-c2ccccc2)nc1OC(=O)c1ccc(C(F)(F)F)cc1	-22	102	125	100
CCOC(=O)c1csc(COc2ccc(C3SCCS3)cc2)n1	2	108	107	106
O=C(Cc1cccc(F)c1)N1CCC(N2CCN(Cc3ccccc3)C(=O)C2=O)CC1	5	92	x	x
CC1CCN(C(=O)c2cccn3c(=O)c4c5c(sc4nc23)CCCC5)CC1	x	103	93	79
CC1CCCCN1S(=O)(=O)c1ccc(C(=O)Nc2nnc(C3CC3)o2)cc1 (stereo not drawn)	-30	103	0.0*	-0.3*
CC(=O)Nc1ccccc1-c1nc2ccccc2n(C(C)C(=O)Nc2cc(Cl)ccc2C)c1=O (stereo not drawn)	-15	101	118	86

The listing continues:
SMILES	HCMV NEC inh	GIV Gai3 FP	Sa growth 42C	Sa growth 42C second temp
NC(=O)CNC(=O)c1ccc(C(F)(F)F)cc1	-17	x	98	84
COc1cc(C)c(C)cc1S(=O)(=O)N1CCCCC1c1cccnc1 (stereo not drawn)	-14	103	111	75
COc1cc(Cl)c(C)cc1NC(=O)c1ccc2c(=O)n3c(nc2c1)CCC3	8	x	92	86
O=C(NCC1CCCO1)C1CCCN(c2ccnc(-c3cccc(F)c3)n2)C1 (stereo not drawn)	-5	107	x	x
CC1C(=O)C2(CCCCC2)C(=O)OC1c1ccccc1 (stereo not drawn)	-2	x	100	92
CCOC(=O)c1sc(NC(=O)c2nc(SCC)ncc2Cl)c(C(=O)OCC)c1C	3	100	100	96
COc1ccc(C2CC(=O)C=C(Nc3ccccc3)C2)cc1 (stereo not drawn)	-4	x	87	86
Cc1ccc(F)cc1NC(=O)CSc1nc(-c2cccs2)cc(C(F)(F)F)n1	-14	104	86	82
CC(C)(C)c1noc2nc(-c3cccs3)cc(C(F)(F)F)c12	-4	x	81	81
O=C(CSc1nccn1-c1ccc(F)cc1)Nc1ccc(OC(F)(F)F)cc1	x	105	121	98
O=C(CC1C(=O)NCCN1C(=O)Nc1ccccc1)Nc1cccc(C(F)(F)F)c1 (stereo not drawn)	22	102	103	108
CC(C)OC(=O)COc1ccc2c(=O)c(Oc3ccccc3Br)coc2c1	-4	106	x	x
COc1ccc(S(=O)(=O)N(Cc2ccco2)Cc2nnc(-c3cccs3)o2)cc1	-15	x	75	72
COc1ccc(CN2CCSCC2)c(OC)c1OC	2	102	101	84
Nc1ccc2oc(-c3ccccc3Br)nc2c1	-16&-32	107&95	94&110	87&99
COc1ccc(Nc2nc(-c3cccs3)cs2)cc1	-9	x	71	72
CCN(CC)C(=O)c1cn(-c2ccccc2)nc1C12CC3CC(CC(C3)C1)C2	-5	x	96	83
CCOc1ccc2c(c1)c(=O)c(S(=O)(=O)c1ccc(CC)cc1)cn2Cc1cccc(Cl)c1	-24	106	113	87
CCOc1ccc(S(=O)(=O)Nc2cccc(-c3ccc(N4CCCC4)nn3)c2)cc1	x	109	120	103
O=C(NCc1ccncc1)c1cc(-c2ccc(Cl)cc2)oc1C(F)(F)F	-19	105	110	88
O=S(=O)(c1ccc(Cl)cc1)N1CCCC2CCCCC21 (stereo not drawn)	5	x	84	95
CCOc1ccc(OC(=O)c2c(-c3ccccc3Cl)noc2C)cc1	x	100	130	80
COc1ccc(OCCSc2nc3ccccc3n2CC(=O)N2CCOCC2)cc1	-5	100	97	92
O=C1Cc2cc(C(=O)CSc3nnc(-c4ccoc4)c(-c4ccoc4)n3)ccc2N1	-40	103	101	53
Cc1ccc(C)c(N2CCN(C(=O)CN3CCSc4ccc(S(=O)(=O)N(C)C)cc43)CC2)c1	x	107	99	88

Profiles, looked up by structure. Screens in order: HCMV NEC inh	GIV Gai3 FP	Sa growth 42C	Sa growth 42C second temp
Results for CCN(CC)CCN(C)C1CCC(C)CC1 (stereo not drawn) = -9	99	103	77
Results for Clc1ccccc1CN1CCN(/N=C/C=C\c2ccco2)CC1 = x	106	84	83
Results for CC(C)c1cnc2c(c1SCC(=O)c1ccc(Cl)cc1)c(=O)n(C)c(=O)n2C = x	109	93	96
Results for Cc1ccc(NC(=O)Nc2ccc(N(C)C)cc2)cc1 = -20	x	82	100
Results for CC1=C(C(=O)Nc2nc3ccc(Br)cc3s2)C(c2ccccc2)C2=C(CC(C)(C)CC2=O)N1 (stereo not drawn) = 4	100	x	x

Further structures follow:
SMILES	HCMV NEC inh	GIV Gai3 FP	Sa growth 42C	Sa growth 42C second temp
COc1ccc2c(Sc3ccccc3)c(C(=O)NCc3cc(Br)ccc3OC)[nH]c2c1	-68	100	111	85
Cc1ccc(CNc2nc3nc(C)c(Cl)c(C)n3n2)cc1	5	106	113	99
COC(=O)Cn1cc2c(n1)-c1c(oc(C(=O)N3CCCC3)c1C)CC2	x	97	96	72
CC1CCCN(CCCNC(=O)Cn2nc(-c3ccccc3)ccc2=O)C1 (stereo not drawn)	-9	101	110	92
CNCCc1c(-c2ccccc2)n(-c2ccccc2)c2ccccc12	x	104	23	1
CCOc1ccc(-c2cc(=O)c3ccccc3o2)cc1	0	106	90	72
COC(=O)c1ccc(-c2nc3cnccn3c2Nc2ccc3c(c2)OCCO3)cc1	-25	107	x	x
Cc1ccccc1OCc1nc2c3c4c(sc3ncn2n1)C(C)(C)NC(C)(C)C4	-17	107	x	x
Cc1ccc2oc(=O)c3cnn(CC(=O)NCCC4=CCCCC4)c3c2c1	-32	100	86	88
CCC(Sc1nc(-c2ccccc2F)nc2c1Cc1c(CO)cnc(C)c1O2)C(=O)Nc1cc(C)ccc1C (stereo not drawn)	x	105	86	91
COc1ccc(-c2cn3nc(N4CCCC(C(=O)NCc5ccc(Cl)cc5)C4)sc3n2)cc1 (stereo not drawn)	x	102	108	77
COc1cc(/C=c2/sc3nc4c(Br)c(C)c(C)cc4n3c2=O)ccc1O	-28	114	x	x
CCn1nc(C(=O)NCCc2ccc(OC)cc2)c2ccccc2c1=O	3	x	103	91
Cc1nc(SCc2nc3ccccc3[nH]2)[nH]c(=O)c1Cc1ccccc1	-15	104	x	x
CCc1ccc(C2=NNC(=O)CC2)cc1	x	98&105	106	92
Cc1ccccc1OCCCCn1c(C2CC(=O)N(c3ccccc3Cl)C2)nc2ccccc21 (stereo not drawn)	0	114	67	62
c1csc(-c2cc(N3CCOCC3)c3ccccc3n2)c1	-45	110	97	93
O=C(CSC1=Nc2ccccc2C2=NC(CC(=O)NCc3ccco3)C(=O)N12)NCc1ccco1 (stereo not drawn)	x	100	97	95
CN1CCN(C(=O)c2ccc3c(c2)N(Cc2c(F)cccc2Cl)C(=O)c2ccccc2S3)CC1	-10	101	103	75
CCc1nc2c(cnn2-c2ccc(C)cc2)c(=O)n1-c1ccc(C)cc1	16	103	99	102
CCC(C)NC(=O)c1ccc(-n2c(-c3ccccc3)cc3c2CCCC3)cc1 (stereo not drawn)	13	105	81	101
CN(C)c1ccc(C2CC(C)(N3CCCC3)Oc3cc4c(cc32)OCO4)cc1 (stereo not drawn)	4	x	89	90
O=C(CC12CC3CC(CC(C3)C1)C2)N1CCC(O)(c2ccc(Cl)cc2)CC1	7	100	87	90
CN(C)C(=O)CN1CCN(c2ccc(F)cc2)CC1	14	102	104	101
Nc1ccn(C2O[C@H](CO)[C@@H](O)[C@@H]2O)c(=O)n1 (stereo partly drawn)	-16	x	86	80
CCOC(=O)c1ccccc1NC(=O)c1nn(-c2ccc(OC)c(Cl)c2)c(=O)c2c1c1ccccc1n2C	-8	103	101	91
COCCc1nn2c(=O)cc(COC(=O)c3ccc(OC)c(OC)c3)nc2s1	x	101	86	98
Cc1ccc(C)c(-c2csc(-c3c(N)c(C(=O)c4ccc5c(c4)OCO5)n4ccccc34)n2)c1	-14	103	96	85
Cc1cc2oc(=O)c3c(c2cc1OCC(N)=O)CCCC3	0	103	153	86
O=C(NNC1=NCCC1)c1cccc(S(=O)(=O)Nc2ccc(Cl)cc2)c1	-22	x	97	101

Screening data deposited in PubChem by ICCB-Longwood Screening Facility, Harvard Medical School.
